# Assay outcomes deposited in PubChem by several laboratories.
# PrP UTR inh: inhibition of PrP 5' UTR reporter expression | cell-based PrP 5' UTR mRNA reporter, plate reader | inhibition, % (concentration not given with the values) | actives 0.35% (n = 340,000) | AID 488862;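 active = every replicate at 50% or more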;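 note: 0 = median of the neutral control wells; tested in H4 reporter cells; numbers are from one replicate; inactives centre near -14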
# Bead autofluor: flagged as autofluorescent in microsphere protease counterscreen; fluorescence intensity (no concentration beside the values); actives 3.1% (n = 360,000); AID 624483; compound autofluorescence counterscreen, microsphere flow cytometry; stronger effect = higher value;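 active = at least 3 SD above the mean of all compounds, about 16000 in these data; inconclusive = too few beads counted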;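 note: 100 nL of 1 mM stock went into each well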
# Mtb hypoxia inh: inhibitors of hypoxia-regulated fluorescent reporter in Mycobacterium tuberculosis; M. tuberculosis hypoxia-regulated fluorescent reporter, fluorescence; fluorescence inhibition, % (concentration not given with the values); actives 0.1% (n = 300,000);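 active = 35 to 45% if threefold the growth effect, above 45% if 1.5-fold the growth effect; inactive = the rest, general growth blockers included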;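 note: wells of about 50 µL received 100 nL stock; 0% = vehicle wells and 100% = reference inhibitor wells; whole bacteria with a GFP reporter of the hypoxia response; strong numbers were not always called active; many hits fall short of the cut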
# Sa ugtP lethal: kills S. aureus RN4220 lacking UgtP | S. aureus RN4220 ugtP deletion, OD600 growth, 16 h; some inactives read as strong as hits | AID 1259309 | growth inhibition, % (concentration not given with the values) | actives 0.54% (n = 330,000);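 active = z-score under -3 and OD600 up to 0.15 on both plates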;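 note: plate controls were untreated wells for no effect and antibiotic for full effect; wells of about 80 µL received 100 nL stock; the first replicate is given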
# RN4220 kill: S. aureus RN4220 growth inhibition | OD600, 16 h | inhibition, % (concentration not given with the values) | actives 0.33% (n = 330,000) | AID 1259311;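 active = z-score of -3 or lower and OD600 up to 0.18 on both plates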;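 note: plate controls were untreated cells for no effect and reference antibiotic for full effect; stock transfer was 100 nL into about 80 µL; one replicate is shown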
# BJeLR viability: kills HRASV12-expressing BJeLR cells; inhibition, % (no concentration beside the values); AID 1554; BJeLR (HRASV12) viability, CellTiter-Glo ATP luminescence, 48 h; reference of the scale not given here; actives 0.17% (n = 300,000);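 active = replicate mean above 50%; inconclusive = above 50% but judged a plate artefact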;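 note: 50 nL library stock added to about 25 µL; numbers are from one replicate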
# Mtb hypoxia inh growth: also measured in Mtb hypoxia inh; calls as there; growth inhibition, %; measured here: M. tuberculosis growth (absorbance);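 0% = vehicle and 100% = reference antibiotic; read after six days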
# * hit, by the source's call; ? = inconclusive; nt = not tested or not shown; & = joins results of further samples.
nr	Molecule	PrP UTR inh	Bead autofluor	Mtb hypoxia inh	Mtb hypoxia inh growth	Sa ugtP lethal	RN4220 kill	BJeLR viability
1	CC(Sc1nc2ccccc2c(=O)n1Cc1ccco1)C(=O)c1ccccc1 (stereo not given)	-6	9602	8	5	21	8.9	-12
2	Cc1ccc(C(=O)N2CCCC(Nc3ccc(F)c(F)c3)C2)cn1 (stereo not given)	-5	4280	-4	-5	-1	3.3	-2
3	CC(=O)N(O)CCCCCNC(=O)CCC(=O)N(O)CCCCCNC(=O)CCC(=O)N(O)CCCCCN	4&52	5866&4311	nt	nt	nt	nt	4
4	CCOP(=O)(Cc1cc(C(=O)CC)c(C)o1)OCC	nt	5780	8	17	4	5.7	-2
5	Cc1cc(C)c2nc(SCC(=O)NCCC3=CCCCC3)cc(C)c2c1	-15	8010	6	3	-2	12	2
6	Cc1cc(C)nc(NS(=O)(=O)c2ccc(NC(=O)Cc3ccc(F)cc3)cc2)n1	-6	3790	13	6	6	5.0	-4
7	COC(=O)c1cc(C#N)c(N2CCOCC2)nc1C	-12	4334	5	9	-4	1.6	0
8	COc1ccc(C(C)=O)cc1CSc1nnc(Nc2ccc(C)cc2C)s1	-8	2584	2	-1	-19	5.3	-2
9	C/C(N)=C(/C#N)C(=O)CSc1nc2ccccc2c(=O)n1CCCO	-28	2792	nt	nt	nt	nt	5
10	C/C(=N\NC(=S)Nc1ccccc1C)c1ccc(O)cc1	-11	3168	nt	nt	nt	nt	-4
11	O=C(CCCSc1nc2ccccc2[nH]1)NC1=NCCS1	-20	3782	9	6	3	6.2	10
12	CC(CCc1ccccc1)NC(=O)C1CCN(S(=O)(=O)c2ccc(F)cc2)CC1 (stereo not given)	-7	4674	10	-4	2	-1.4	0
13	O=C(Nc1ccccc1)N(Cc1ccccc1)CC(O)C(F)(F)F (stereo not given)	-25	5048	nt	nt	1	3.8	6
14	CCn1cc(C(=O)N[C@H](C(=O)NCCN2CCOCC2)C(C)C)c(=O)c2cc3c(cc21)OCO3	1	4122	-1	0	1	0.1	1
15	CCOC(=O)CN1CCS(=O)(=O)CC1	-1	4294	2	-1	5	6.9	-5
16	O=C(NCCCN1CCOCC1)c1cccnc1	-11	2007	6	1	2	0.9	11
17	O=C(NNC(=O)c1cccc2ccccc12)c1ccc(Cl)cc1Cl	-45	3453	8	2	1	4.3	nt
18	Cc1ccc(S(=O)(=O)CCC(=O)NC2CCCCC2)cc1	-22	5333	0	0	7	6.5	nt
19	COc1ccc(-c2ccc(SC)nn2)cc1	32	4435	0	12	2	3.7	66*
20	COC(=O)c1scc(C)c1N/N=C(\C)c1cc(F)c(Cl)cc1F	-11	16330*	nt	nt	nt	nt	5
21	Cc1ccc(OCC(=O)NNC(=O)C(=O)N2CCCC2)c(C)c1	6	2439	3	-2	4	3.3	2
22	CCN1CCN(c2ccc(S(=O)(=O)N3CCCCC3)cc2NC(=O)Cc2ccccc2)CC1	-29	2985	6	7	6	5.7	10
23	COc1ccc(/C=N\NC(=O)CC(=O)Nc2cccc(Cl)c2)cc1OC	-26	3427	nt	nt	nt	nt	4
24	Cc1nc2ccccc2c2oc(C(=O)NCCCN3CCCC(C)C3)cc12 (stereo not given)	9	2762	0	-11	7	3.0	11
25	CCn1c(CNc2ccc(C)cc2C)nnc1SCC(=O)N1CCCc2ccccc21	-4	3986	7	19	-3	-4.0	-12
26	COCCNC(=O)C(=O)NN=Cc1cccs1	nt	nt	-3	1	4	2.6	nt
27	CCCc1nnc2c(N(C)S(=O)(=O)c3ccccc3)nc3ccccc3n12	-9	2033	17	9	12	5.3	-9
28	CCn1nc(NC(=O)c2ccccn2)c2cc3cc(C)ccc3nc21	-51	2177	nt	nt	-10	7.1	1
29	Cc1ccc(-c2nnc(-n3ncc(C#N)c3N)c3ccccc23)cc1C	10	2047	1	-1	-4	9.2	4
30	COc1ccc(CCNC(=O)COc2ccc(S(=O)(=O)NC(C)C)cc2Cl)cc1OC	-12	10506	-7	5	-2	1.2	4
31	Cc1ccc2[nH]c(=O)c(COC(=O)C3CCCO3)cc2c1 (stereo not given)	-16	2174	nt	nt	4	4.2	-11
32	COC(=O)C1=C(C)NC(C)=C(C(=O)OC)C1/C=C/c1ccccc1	-14	20052*	2	11	4	2.6	-8
33	Cc1nc(-c2cc(C#N)c(Sc3ccc(Cl)cc3Cl)nc2C)cs1	-10	4824	14	5	28	-2.1	4
34	NC(=O)C1CCN(C(=O)c2cccc(S(=O)(=O)N3CCCC3)c2)CC1	-16	5862	-12	1	-2	-1.7	nt
35	COc1ccc(S(=O)(=O)N2CCN(C(=O)c3cc(-c4ccc(Br)cc4)n[nH]3)CC2)cc1OC	6	5708	11	5	0	-0.7	-9
36	Nc1nc(-c2ccc(Cl)cc2)c(S(=O)(=O)c2ccccc2)s1	-5	2139	14	-2	37	1.9	-4
37	COc1cc(C)nc(Oc2ccc(OCc3ccccc3)nn2)n1	-18	4837	8	8	-1	-0.2	0
38	O=C(NCCN1CCOCC1)c1c(O)nc2ccccn2c1=O	8	5691	-11	8	0	1.6	9
39	Cc1ccc(NC(=O)Cn2c([N+](=O)[O-])cnc2C)cc1	-30	4234	2	2	3	4.1	-6
40	N#C/C(=C/c1ccc([N+](=O)[O-])cc1)C(=O)Nc1ccccc1O	-53	1960	nt	nt	nt	nt	-6
41	O=C(Nc1ccccc1NC(=O)c1c(F)cccc1F)c1c(F)cccc1F	-12	3814	2	-3	3	0.4	-2
42	COc1cccc(C2=NNC(=NCc3ccccc3)SC2)c1	-40	4619	-1	6	1	2.1	10
43	Cc1ccc(NC(=O)C(C)NS(=O)(=O)c2ccc(F)cc2)cc1C (stereo not given)	-11	2522	3	36	-1	2.8	-4
44	COCCCNC(=O)/C=C1\Sc2ccccc2N(Cc2ccccc2F)C1=O	-19	4835	5	9	9	-0.1	6
45	COc1cccc(-c2nc(NCC3CCCO3)c3ccccc3n2)c1O (stereo not given)	4	3757	1	21	-8	4.3	1
46	O=C1c2ccccc2C(=O)c2c1ccc1c(=O)n(-c3ccccc3)[nH]c21	-80	7477	2	-4	58	74	4
47	CCN(C(=O)COC(=O)/C=C/c1c(C)nn(Cc2ccc(C)cc2)c1C)C1CCS(=O)(=O)C1 (stereo not given)	-43	5086	-4	1	12	5.2	0
48	CC(=O)CC1(O)C(=O)N(CN2CCN(c3ccccc3)CC2)c2ccccc21 (stereo not given)	-25	5991	5	2	4	-0.4	-7
49	CCN(CC)C(=O)CSc1nnc(-c2cc(OC)cc(OC)c2)o1	-3	7167	8	2	9	4.8	-2
50	COc1ccc(Cc2nnc(NC(=O)c3ccco3)s2)cc1OC	-27	4656	4	4	-3	1.8	-6
51	CCOc1ccccc1N(CC(=O)NC1CCCC1)S(=O)(=O)c1ccc(C)cc1	-10	4138	10	1	14	6.4	-7
52	Cc1cnc(NC(=O)c2ccc(-c3ccc([N+](=O)[O-])cc3)o2)s1	-6	5286	-5	2	-14	9.8	nt
53	NC(=O)Nc1ccc(Nc2ccccc2)cc1	-10	3847	16	11	1	0.1	-8
54	CCCn1c(N)c(C(=O)CSc2ncn[nH]2)c(=O)n(C)c1=O	-9	4026	6	5	6	5.6	nt
55	O=C1C=CC(=O)N1c1ccc2ccccc2c1	-13	3823	18	10	1	-1.1	nt
56	CCOc1ccc(NS(=O)(=O)c2ccc(N)cc2)cc1	-15	2910	12	1	19	-5.3	3
57	O=C(NCc1ccc(Cl)cc1)c1cccc2c1C(=O)N(CC1CCCO1)C2 (stereo not given)	-3	6453	3	2	-5	3.1	3
58	O=C(CO)NN=Cc1ccccc1F	nt	nt	5	6	0	6.4	nt
59	CC(C)=C1Cc2ccccc2C1=O	-24	4392	-1	0	4	4.7	-11
60	CN(Cc1cccc(C(F)(F)F)c1)Cc1nc(-c2cnccn2)no1	-10	4172	7	4	0	1.8	1

# Single records, from the list above. Order of screens: PrP UTR inh, Bead autofluor, Mtb hypoxia inh, Mtb hypoxia inh growth, Sa ugtP lethal, RN4220 kill, BJeLR viability
# Results for Cc1nc(-c2cc(C#N)c(Sc3ccc(Cl)cc3Cl)nc2C)cs1 = -10, 4824, 14, 5, 28, -2.1, 4
# Results for CC(CCc1ccccc1)NC(=O)C1CCN(S(=O)(=O)c2ccc(F)cc2)CC1 (stereo not given) = -7, 4674, 10, -4, 2, -1.4, 0

# (more compounds)
nr	Molecule	PrP UTR inh	Bead autofluor	Mtb hypoxia inh	Mtb hypoxia inh growth	Sa ugtP lethal	RN4220 kill	BJeLR viability
61	CCC1CCCCN1C(=O)c1cc(-c2ccc(Cl)c(Cl)c2)on1 (stereo not given)	-59	25388*	6	12	46	18	9
62	CCOc1ccc(C2/C(=C(/O)c3ccc4c(c3)CC(C)O4)C(=O)C(=O)N2CC2CCCO2)cc1 (stereo not given)	-16	5654	5	-5	5	5.5	5
63	CN1CCN(c2ccc(NC(=O)c3ccc(Cl)cc3Cl)cc2)CC1	-42	3760	18	5	18	7.1	-2
64	COc1ccc(C(=O)ON=C(C)c2ccccc2)cc1	nt	nt	1	-7	4	2.7	nt
65	Cc1cn(C2OC(COC(=O)c3ccccc3)C(O)C2Cl)c(=O)[nH]c1=O (stereo not given)	-42	2615	11	-9	6	8.1	-6
66	Cc1sc2ncnc(SCC(=O)N3CCOCC3)c2c1C	-3	?	9	5	7	4.0	nt
67	Cc1nnc(SCC(=O)Nc2cccc(C(F)(F)F)c2)[nH]c1=O	-52	4067	nt	nt	5	1.2	13
68	COc1ccc(Br)cc1C1NC(=O)NC(C)=C1C(=O)N(C)C (stereo not given)	-4	5959	8	14	-6	2.7	-2
69	COCCNC(=S)N1CCC(C(=O)c2ccc3c(c2)OCCO3)CC1	-59	4148	3	13	5	-1.0	3
70	Cc1nc(NC(=O)CN2CCN(c3cccc(Cl)c3)CC2)sc1C(=O)N(C)C	-8	nt	8	-4	-1	-1.8	-4
71	CN(C)N=C/C=C1\CC/C(=C\c2ccc(Br)cc2)C1=O	nt	nt	18	13	-1	9.1	nt
72	COc1ccc(/C=N/Nc2cc(C)nc(-n3nc(C)cc3C)n2)cc1	-18	2139	nt	nt	nt	nt	-1
73	CN1C[C@H](CNC(=O)OCc2ccccc2)C[C@@H]2c3cccc4c3c(cn4C)C[C@H]21	24	4366	nt	nt	nt	nt	6
74	Cc1cc(NC(=O)c2ccc(S(=O)(=O)N(C)CC3CCCO3)cc2)no1 (stereo not given)	0	2702	6	0	9	0.6	-6
75	COC(=O)c1cc(-c2ccc(S(=O)(=O)N3CCCCC3)cc2)c(C(F)(F)F)s1	-15	4705	8	6	-2	-2.4	8
76	COc1ccnc(Oc2ccccc2)c1-c1ncn[nH]1	-23	4518	2	1	0	4.4	4
77	CCNC(=O)C12CCC(C)(C(=O)C1Br)C2(C)C (stereo not given)	-10	2002	6	2	3	0.4	7
78	Cc1cccc2sc(NC(=O)c3ccc(OCC4CCCO4)cc3)nc12 (stereo not given)	-64	4402	3	1	14	-6.4	-1
79	COc1ccc(-c2ncncc2-c2csc(C)n2)c(O)c1OC	-13	3097	1	2	-4	5.5	3
80	COCc1ccc(-c2ccc3c(c2)c(C#Cc2ccsc2)c(-c2cc(OC)cc(OC)c2)n3C)cc1	-12	3645	12	1	1	-13	nt
81	CC[N+](C)(CC)CCOC(=O)C1c2ccccc2Oc2ccccc21	-10	5740	8	7	2	6.3	nt
82	O=C(CN1C(=O)NC2(CCc3ccccc32)C1=O)NCc1cccc(C(F)(F)F)c1 (stereo not given)	-23	3374	17	10	-3	4.9	nt
83	CC(=O)Nc1cccc(-c2cc(-c3c(Cl)cccc3Cl)no2)c1	0	4996	0	0	24	1.0	1
84	COc1ccc(NC(=O)CS(=O)CC(=O)Nc2cccc3cccnc23)cc1 (stereo not given)	-18	5909	7	0	-3	3.8	-1
85	N#CC1(NC(=O)CSc2nnc(-c3ccccc3F)o2)CCCCC1	-31	5875	4	1	0	0.7	-10
86	O=C(NC(NC(=S)Nc1ccccc1Cl)C(Cl)(Cl)Cl)c1cccc(Cl)c1 (stereo not given)	-22	9958	7	-4	73	53	3
87	O=C(NCCc1ccccc1)C1CCN(C2CCN(C(=O)CC3=CCCCC3)CC2)CC1	-24	5417	9	5	1	6.7	2
